# High-throughput results deposited in PubChem BioAssay by National Center for Advancing Translational Sciences (NCATS).
# Lassa entry inh = inhibitors of Lassa virus binding or cell entry | Potency, µM (top dose mostly 37.9 µM), inactives show at the highest dose activity change, negative = inhibition, usual class: inhibitors | 300,000 tested, 1.2% active | Lassa virus pseudotype entry inhibition, cell reporter; control for the full effect not named in the record | AID 540256; active means well fitted inhibition curve with a large enough effect; inconclusive means small, poorly fitted or top-dose-only effect, or effect the other way; inactive means flat fitted curve, though single readings scatter; tested in HEK293 cells; also: % is scaled to controls: 0 for no effect and ±100 for the full control effect; nearly all actives have a fitted effect of over 50% in size; luciferase read-out
# NS1 inh = influenza NS1 inhibition. S. cerevisiae slowed by influenza A NS1, growth recovery by OD600. Potency, µM (highest dose often 46.1 µM), without a hit: top-dose activity, positive = more growth. 270,000 tested, 0.4% active. AID 2326; active means well fitted rising curve with a large enough effect; inconclusive means small, poorly fitted or top-dose-only effect; inactive means no such curve, though single readings can be large or run the other way; also: nearly all actives have a fitted effect of over 50% in size
#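 Read-out: OD600 growth recovery of NS1-expressing budding yeast. Cells grown overnight at 30C in -URA glucose medium, washed, resuspended and diluted 1:100 in 2% galactose assay medium, pH 6.0. Same strain lacking NS1 served as positive control.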
# StopGo reporter = FMDV 2A StopGo reporter, luciferase signal; human cells with a luciferase reporter of 2A StopGo recoding; control for the full effect not named in the record; Potency, µM (highest dose often 57.9 µM), for the others: top-dose signal change, negative = less light; 410,000 tested, 1.2% active; AID 1159524; active = well fitted falling curve with a large enough effect; inconclusive = small, poorly fitted or top-dose-only effect; inactive = no such curve, though single readings can be large or run the other way; tested in HEK293T cells; also: % is scaled to controls: 0 for no effect and ±100 for the full control effect; nearly all actives have a fitted effect of over 45% in size; luciferase light after 4 h
# RE007 growth inh = less growth of the S. pombe RE007 Vpr strain. AID 651644. Potency, µM (series often up to 92.2 µM), without a hit: top-dose activity change, negative = less growth. 360,000 tested, 0.21% active. S. pombe RE007 Vpr strain, BacTiter-Glo ATP luminescence, 24 h; control for the full effect not named in the record; active = well fitted falling curve with a large enough effect; inconclusive = small, poorly fitted or top-dose-only effect; inactive = no such curve, though single readings can be large or run the other way;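 also: % is scaled to controls: 0 for no effect and ±100 for the full control effect; nearly all actives have a fitted effect of over 50% in size; the assay follows cell death caused by Vpr and the record does not say whether a fall means rescue or toxicity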
#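 Fission yeast RE007 carrying one integrated HIV-1 vpr copy, seeded at OD 0.01 in PMG+AL medium with 23 nL pinned compound. Grown 24 h at 30 degrees; viability read by BacTiter-Glo luminescence after 5 min.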
# MARV entry inh = inhibitors of Marburg virus binding or cell entry; Marburg virus pseudotyped entry inhibition, cell reporter; control for the full effect not named in the record; about a third of the inactives were read at about 46 µM; Potency, µM (titrated, usually from 37.8 µM), for the others: top-dose activity change, negative = inhibition, most hits filed as inhibitors; 300,000 tested, 1.8% active; AID 540276; active = well fitted inhibition curve with a large enough effect; inconclusive = small, poorly fitted or top-dose-only effect, or effect the other way; inactive = flat fitted curve, though single readings scatter; tested in HEK293 cells; about a fifth of its hits are not listed in these tables; also: % is scaled to controls: 0 for no effect and ±100 for the full control effect; luciferase read-out
# SARS PLP yeast = SARS-CoV PLP inhibition in yeast; S. cerevisiae expressing SARS-CoV PLpro, growth rescue; control for the full effect not named in the record; Potency, µM (doses to about 32.9 µM), inactives show at the top dose activity, positive = growth rescue; 330,000 tested, 0.19% active; active means well fitted rising curve with a large enough effect; inconclusive means small, poorly fitted or top-dose-only effect; inactive means no such curve, though single readings can be large or run the other way; also: 0% is about no effect; nearly all actives have a fitted effect of over 55% in size; growth read by luminescence after 48 h
# Cruzain inh Det = inhibitors of Trypanosoma cruzi cruzain with detergent | P25779 | Potency, µM, for inactives: max response, negative = inhibition, usual class: inhibitors | purified cruzain, Z-FR-AMC fluorescence, 0.01% Triton | 200,000 tested, 0.43% active;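 also: plate controls were neutral wells for no effect and buffer without enzyme for full effect; nearly all actives have a fitted effect of over 40% in size; top concentration of the series not given in the record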
# Target sequence (P25779 123-467 limits assumed): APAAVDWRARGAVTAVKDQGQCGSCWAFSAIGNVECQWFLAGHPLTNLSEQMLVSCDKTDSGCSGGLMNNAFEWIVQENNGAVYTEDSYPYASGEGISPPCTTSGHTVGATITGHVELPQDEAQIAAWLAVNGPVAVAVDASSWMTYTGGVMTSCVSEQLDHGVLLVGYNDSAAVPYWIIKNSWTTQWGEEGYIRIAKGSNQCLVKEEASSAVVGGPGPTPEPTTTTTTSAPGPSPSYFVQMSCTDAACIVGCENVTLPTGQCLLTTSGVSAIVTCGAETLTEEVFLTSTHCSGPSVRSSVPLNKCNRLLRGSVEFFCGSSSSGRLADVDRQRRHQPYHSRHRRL
#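 Compounds were screened in titration against cruzain (1.5 nM) with 0.01% Triton X-100 to counter colloidal aggregation. Activity was the AMC fluorescence increase over 60 s after adding 2 uM Z-FR-AMC at pH 5.5.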
# Cruzain inh noDet = blocks cruzain activity in detergent-free assay; purified cruzain, Z-FR-AMC fluorescence, no detergent; Potency, µM, for inactives: max response, negative = inhibition, actives largely listed as inhibitors; 200,000 tested, 2.3% active;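 also: plate controls were enzyme without inhibitor for no effect and buffer without enzyme for full effect; nearly all actives have a fitted effect of over 40% in size; top concentration of the series not given in the record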
#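 Detergent-free condition (0.00005% Triton X-100) in acetate buffer pH 5.5 with DTT. 1.5 nM enzyme and compound were pre-mixed 15 min, then 2 uM Z-FR-AMC substrate added; reaction progress from fluorescence change between first and third reads (60 s).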
# Numbers without * were called inactive; ? = inconclusive; . = not tested or not shown; & = joins results of further samples; [ ] = another dose, or the depositor's remark. Unless noted, calls follow the shape of the dose curve; as a rule, active = well fitted curve in the direction sought with a large enough effect; inconclusive = small, poorly fitted or top-dose-only effect, or another doubt; inactive = no such curve, though single readings can be large; an effect the other way counts as inactive or inconclusive. Potency is read from the fitted curve at half-maximal effect.
SMILES,Lassa entry inh,NS1 inh,StopGo reporter,RE007 growth inh,MARV entry inh,SARS PLP yeast,Cruzain inh Det,Cruzain inh noDet
Cc1ccccc1NC(=O)c1ccc2c(c1)OCCO2,28.8%,0.9%,0.0%,0.3%,27.8%,-2.2%,3.1%,-7.4%
Cc1[nH]nc2c1-c1nc3ccccc3nc1C(C)(C)C2,?,-60.6%,?,8.4%,?,-5.6%,-21.5%,11.0%
CN(C)C1=NC(N(C)C)=NP(N(C)C)(N(C)C)=N1,4.6%,?,-2.7%,-2.1%,1.9%,6.6%,2.4%,5.3%
COc1ccccc1-c1ccc(/C=C2/C=C(C)OC2=O)o1,0.3%,-17.4%,2.4%,-3.9%,?,-9.6%,-14.9%,-12.7%
CCC(C)c1ccccc1NC(=O)COc1ccc(-c2nnco2)cc1 (stereo not given),3.8%,.,-3.6%,8.9%,?,1.4%,.,.
CCOC(=O)C[n+]1ccc2c([nH]c3ccccc32)c1C,?,7.8%,-5.3%,-8.5%,6.2%,0.7%,.,.
CCc1c(C)nc(N2CCN(c3ccc(F)cc3)CC2)[nH]c1=O,.,6.7%,-4.2%,3.1%,.,-3.0%,.,.
O=C(COC(=O)/C=C/c1ccc(C(F)(F)F)cc1)NCc1ccco1,.,-28.8%,-16.3%,16.6%,.,2.7%,.,.
CCc1ccc(CNC(=O)c2ccc3nc(SCc4ccc(F)cc4)n(C)c3c2)cc1,.,.,-27.2%,.,?,.,-1.3%,16.4%
COc1cc2c(cc1NC(=O)CN(C)Cc1ccc(OC)c(OC)c1)oc1ccccc12,.,-19.0%,0.0%,-5.6%,1.1%,-21.6%,-7.3%,11.3%
Cc1ccc(C)c(NC(=O)c2nnn(CC(=O)Nc3cccc(C)c3C)c2N)c1,21.0%[46.1 µM],.,13.8%,.,.,.,-0.6%,11.2%
Cc1nc(SCC(=O)N(CC(C)C)C2CCS(=O)(=O)C2)c(C#N)c(C)c1C (stereo not given),-5.7%,.,-14.0%,-18.1%,?,-5.9%,.,.
Cc1c(CC(=O)NCc2ccc(F)cc2)c(=O)oc2cc(O)c(Cl)cc12,-13.0%[46.1 µM],.,-16.6%,.,8.6%[46.1 µM],.,?,13.3%
Cc1ccc(NC(=O)CSc2nnc(CCNC(=O)OC(C)(C)C)o2)c(C)c1,-3.3%,-12.8%,-18.9%,-1.4%,-6.0%,3.2%,3.0%,1.1%
CCOc1ccc(N(CC(=O)N/N=C/c2ccc(OC(C)C)cc2)S(C)(=O)=O)cc1,0.6%,-10.2%,6.5%,2.5%,8.0%,14.0%,-8.9%,15.0%
CN(C(=O)c1ccco1)c1nc2c(s1)CCCC2,6.31µM*,-73.0%,-38.4%,?,?,-15.9%,-1.0%,-4.8%
CCOC(=O)Nc1c(C(=O)OC)[nH]c2cccc(OC)c12,-2.6%,-10.2%,-1.1%,-5.7%,-2.9%,-1.5%,7.8%,-7.7%
Cc1ccccc1OCC(=O)Nc1ccc(-c2nc3ncccc3o2)cc1,16.2%[46.1 µM],.,-9.8%,.,.,.,-1.9%,11.4%
O=C1CC(c2ccc(O)cc2)Oc2cc(O)cc(O)c21 (stereo not given),-0.2%,-5.2%,-17.4%&40.8%,-14.0%[18.4 µM],15.2%&15.2%&15.2%&15.2%&15.2%,1.5%,-1.1%&-8.8%&-6.8%,-3.1%&-15.8%&-4.7%
Cc1ccc(N2C(=O)C3C(C(=O)c4ccccc4)=NN(c4ccccc4)C3C2=O)cc1 (stereo not given),23.3%,?,-17.0%,-20.5%,18.4%,8.3%,-7.1%,15.8µM*
CN(C)C(=O)c1cc(C(=O)c2ccccc2Cl)c[nH]1,19.2%,8.4%,38.5%[activator],-6.4%,.,0.4%,.,.
Cc1ccc2cc(/C=N/NC(=O)c3ccccc3O)c(Cl)nc2c1,-0.1%,-5.4%,?,-5.0%,?,10.7%,-7.1%,2.2%
CCN(CC)c1ccc(NC(=O)CSc2n[nH]c(-c3ccco3)n2)cc1,-1.9%,.,5.1%,-2.8%,?,-1.8%,.,.
CCCC(=O)Nc1nc(-c2ccccc2)ns1,20.6µM*,-27.4%,17.0%,-10.7%,?,-42.8%,-5.0%,-6.1%
COc1cc(CN2CCNC(=O)C2CC(=O)NCc2csc(C(C)C)n2)cc(OC)c1 (stereo not given),.,-1.5%,1.6%,8.6%,.,0.4%,.,.
COc1ccc(NC(=O)C2CCCN(S(=O)(=O)c3c(C)[nH]c(=O)[nH]c3=O)C2)cc1Cl (stereo not given),0.1%,.,-3.3%&-14.7%,-12.5%,4.9%,0.6%,-0.6%,-13.6%
CC(C)(C)c1nnc(N/N=C/c2ccc(Br)cc2)n(N)c1=O,-10.1%,12.9%,-8.3%,-4.4%,?,-1.4%,-3.2%,10.7%
O=C(CC1C(=O)NCCN1Cc1ccc(-c2ccccc2)cc1)NCc1ccccc1 (stereo not given),?,0.8%,-25.4%,-9.7%,-28.7%[46.1 µM],-2.0%,.,.
Cc1c(Cl)cccc1NC(=O)CSc1nc(=O)n(Cc2ccco2)c2c1CCC2,-17.4%[46.1 µM],.,0.0%,.,.,.,-4.4%,-3.0%
COc1cccc(NC(=O)Nc2cccn(Cc3ccccc3)c2=O)c1,-14.6%,-16.4%,-4.1%,19.8%,?,-7.6%,-9.0%,-15.6%
CSc1ccccc1Nc1ncnc(N)n1,18.0%,-3.7%,5.7%,6.0%,?,0.2%,.,.
COc1ccccc1NC(=O)c1cnc(SCC(=O)NCC2CCCO2)n(C)c1=O (stereo not given),?,.,25.1µM*,0.0%,?,0.0%,.,.
CCCOc1cccc(C2/C(=C(/O)c3ccc(F)cc3)C(=O)C(=O)N2CCN(C)C)c1 (stereo not given),12.5%,-0.6%,-16.8%,-10.8%,-1.1%[46.1 µM],0.1%,-1.4%,-6.5%
CCS(=O)(=O)CCSc1nc2ccccc2s1,3.7%,0.3%,1.4%,-19.3%,14.3%,0.0%,-0.2%,-9.8%
FC(F)(F)c1ccc(Cl)c(-n2c(-c3ccco3)n[nH]c2=S)c1,.,-0.8%,0.0%,-7.2%,.,-1.9%,.,.
c1cc(-c2nnc3n2CCCCC3)ccn1,13.5%,7.2%,.,-9.1%,6.0%,4.3%,2.3%,-4.2%
Cc1ccc(OCC(=O)NNC(=O)Cc2ccc(S(=O)(=O)N3CCOCC3)s2)cc1,7.8%,.,-6.9%,12.6%,?,7.9%,.,.
CC(C)CNC(=O)CSc1nnc(-c2ccccn2)n1Cc1ccccc1,7.4%,0.4%,-14.1%,4.2%,4.3%[46.1 µM],4.7%,1.9%,-3.3%
O=C(c1cc(-c2ccc(F)cc2)nc2ccccc12)N1CCC1,-7.9%[46.1 µM],.,6.5%,1.8%,?,-5.3%,.,.
Nc1ccc(SCCN2C(=O)c3ccccc3C2=O)cc1,15.2%,-6.2%,57.7%[activator],-21.2%,?,1.5%,-5.4%,-9.5%

# Arranged by length of the SMILES (falling): part of the list above.
SMILES,Lassa entry inh,NS1 inh,StopGo reporter,RE007 growth inh,MARV entry inh,SARS PLP yeast,Cruzain inh Det,Cruzain inh noDet
Cc1c(Cl)cccc1NC(=O)CSc1nc(=O)n(Cc2ccco2)c2c1CCC2,-17.4%[46.1 µM],.,0.0%,.,.,.,-4.4%,-3.0%
COc1ccccc1NC(=O)c1cnc(SCC(=O)NCC2CCCO2)n(C)c1=O (stereo not given),?,.,25.1µM*,0.0%,?,0.0%,.,.
FC(F)(F)c1ccc(Cl)c(-n2c(-c3ccco3)n[nH]c2=S)c1,.,-0.8%,0.0%,-7.2%,.,-1.9%,.,.
CC(C)CNC(=O)CSc1nnc(-c2ccccn2)n1Cc1ccccc1,7.4%,0.4%,-14.1%,4.2%,4.3%[46.1 µM],4.7%,1.9%,-3.3%
c1cc(-c2nnc3n2CCCCC3)ccn1,13.5%,7.2%,.,-9.1%,6.0%,4.3%,2.3%,-4.2%

# Next part.
SMILES,Lassa entry inh,NS1 inh,StopGo reporter,RE007 growth inh,MARV entry inh,SARS PLP yeast,Cruzain inh Det,Cruzain inh noDet
CCOC(=O)CC1C(=O)NCCN1C(=S)NC(=O)c1ccccc1OC (stereo not given),21.9%,-5.4%,-2.1%,-7.4%,-0.8%,3.5%,.,.
COC(=O)[C@@H]1C[C@@H]2CC[C@@H](O)C[C@@H]2N1Cc1ccccc1OS(=O)(=O)c1ccc(C)cc1,.,-0.4%,-23.5%,1.2%,.,-2.3%,-0.7%,5.4%
CCC(=O)Oc1cccc(C(=O)Nc2ccc(-c3nnc(-c4ccco4)o3)cc2)c1,?,-42.7%,4.2%,30.7%,-28.3%,-4.1%,-14.1%,?
O=C(NCc1ccc(Cl)cc1)c1cc2ccccc2o1,?,.,-9.4%,.,.,.,-6.1%,-6.2%
COC(=O)c1cc(=O)n(CCc2ccccc2)c(=Nc2ccc(F)cc2)s1,.,-2.1%,?,-8.9%,.,-12.2%,4.5%,0.5%
CCOC(=O)C(C)c1nc2ccccc2[nH]c1=O (stereo not given),10.3%,6.9%,-11.6%,-8.7%,7.5%,-4.0%,0.2%,-5.9%
COc1ccccc1-c1nnc(NC(=O)c2ccccc2F)o1,.,-48.6%,14.7%,-3.9%,.,-3.6%,-0.4%,-3.8%
O=P(O)(O)C(Cl)(Cl)P(=O)(O)O,2.1%,-8.7%,.,.,-28.6%&18.0%&18.0%&18.0%&18.0%,.,3.3%,6.6%
COc1cc(NC(=O)C2CC(c3c(F)cccc3Cl)=NO2)c(OC)cc1Cl (stereo not given),?,-1.4%,-14.1%,-3.6%,-25.3%,-0.8%,.,.
CC[n+]1oc(-c2ccccc2)cc1C,-10.3%[46.1 µM],.,-5.9%,2.5%,7.3%[46.1 µM],0.6%,.,.
COc1ccc(C/C(C)=N/NC(=S)Nc2ccccc2)cc1,12.0%,-22.2%,41.5%[activator],-2.9%,?,11.2µM*,?,-6.5%
Cc1cc(Cl)ccc1OC(C)C(=O)NC(C)C1CCCO1 (stereo not given),-9.0%[46.1 µM],12.1%,-4.9%,-11.6%,?,3.9%,.,.
